# D2 agonist – activates the human D2 dopamine receptor; P14416; DiscoveRx PathHunter D2 beta-arrestin, luminescence, 90 min; 100% = 57 uM dopamine signal; activation, % (concentration not given with the values); actives 0.084% (n = 360,000); in the data active = activation above about 40%; inconclusive = about 15% to 40%; inactive = below about 15%; also: compound concentration not given in the record; the text of the record calls up to 30% inactive
# Target sequence (P14416 whole entry, looked up): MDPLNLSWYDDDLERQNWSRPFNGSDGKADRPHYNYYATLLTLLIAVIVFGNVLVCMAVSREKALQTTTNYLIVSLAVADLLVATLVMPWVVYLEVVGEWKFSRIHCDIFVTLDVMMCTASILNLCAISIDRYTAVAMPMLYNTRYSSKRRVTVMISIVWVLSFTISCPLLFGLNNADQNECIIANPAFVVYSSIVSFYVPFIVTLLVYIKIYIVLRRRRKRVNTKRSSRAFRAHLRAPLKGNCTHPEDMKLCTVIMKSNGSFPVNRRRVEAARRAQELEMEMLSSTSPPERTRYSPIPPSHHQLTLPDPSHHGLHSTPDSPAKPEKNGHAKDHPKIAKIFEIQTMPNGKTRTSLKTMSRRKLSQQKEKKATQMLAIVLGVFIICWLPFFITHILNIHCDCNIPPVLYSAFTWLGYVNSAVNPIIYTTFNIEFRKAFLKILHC
#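 DiscoveRx PathHunter D2 beta-arrestin cells (2,100/well) attached overnight, then compound-stimulated 90 min at 37 C in HBSS/10 mM HEPES/0.1% Tween-20 buffer; beta-galactosidase complementation read by luminescence after 1 h at ambient temperature. Dopamine 57 uM final (EC100) as control.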
# gsp agonist – activates gsp, the McCune-Albright syndrome mutation. actives 0.13% (n = 340,000). AID 624287. gsp mutant cells, cAMP HTRF, 30 min; control for the full effect not named in the record. Potency, µM (series often up to 76.9 µM), without a hit: at the top dose activation (cAMP increase), hits mostly activators; active = well fitted activation curve with a large enough effect; inconclusive = small, poorly fitted or top-dose-only effect, or another doubt; inactive = no such curve, though single readings can be large or run the other way; cell line not stated here;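 also: phosphodiesterase inhibitor Ro 20-1724 added with compounds to block cAMP breakdown; potency is read from the fitted curve at half-maximal effect; nearly all actives have a fitted effect of over 60% in size; about a fifth of the inactives were tested at one dose only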
#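 Cells stably selected in G418 were plated at 2000/well, grown 16-24 hr, then given compounds in DMSO with the PDE inhibitor […] (300 uM solution added) for 30 min at 37C; cAMP was read by HTRF.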
# Sfp PPTase inh – inhibitors of Bacillus subtilis Sfp phosphopantetheinyl transferase | Biochemical Sfp PPTase activity, qHTS | Potency, µM, without a hit: max response, negative = inhibition, most hits filed as inhibitors | actives 3.5% (n = 310,000) | AID 1490; active = well fitted inhibition curve with a large enough effect; inconclusive = small, poorly fitted or top-dose-only effect, or another doubt; inactive = no such curve, though single readings can be large or run the other way;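 also: the enzyme is Sfp with the accession as filed and its product quenches rhodamine fluorescence; potency is read from the fitted curve at half-maximal effect; 0% = enzyme reaction without inhibitor and -100% = no enzyme wells; top concentration of the series not given in the record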
#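 After 15 min at room temperature with compound, 15 nM Sfp received 5 uM rhodamine-CoA plus 12.5 uM BHQ-2-ybbR (50 mM Hepes pH 7.6, 10 mM MgCl2). Rate came from the fluorescence difference over 30 min, ex 525/em 598 nm.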
# Menin MLL FP FL – inhibitors of human menin-MLL interaction, wild-type MLL peptide; FP activity change, % at 61.4 µM; Fluorescence polarization, fluorescein-MLL peptide displacement from menin; 290,000 tested, under 10 active; inconclusive = falling polarisation curve, or a change in total fluorescence; inactive = total fluorescence flat and polarisation flat or rising; no compound was filed as active; the % refers to the polarisation; negative = inhibition;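 also: % of control where 0% means no effect; inhibitors lower the polarisation; unlabelled MLL peptide was the positive control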
# ClpP mod – qHTS Assay for Activators of ClpP | Potency, µM (titrated, usually from 57.5 µM), for the others: at the highest dose activity change, negative = active | AID 651965, 2013 | ATP-dependent Clp protease proteolytic subunit (Bacillus subtilis (strain 168)), P80244 | actives 1.9% (n = 340,000) | purified B. subtilis ClpP, FRET peptide cleavage, 20 min; active = well fitted falling curve with a large enough effect; inconclusive = small, poorly fitted or top-dose-only effect; inactive = no such curve, though single readings can be large or run the other way; also: potency is read from the fitted curve at half-maximal effect; the source files actives as falling curves though it sought activators and does not explain the sign; nearly all actives have a fitted effect of over 65% in size; many hits overshoot -100%
# Target sequence (P80244 whole entry, looked up): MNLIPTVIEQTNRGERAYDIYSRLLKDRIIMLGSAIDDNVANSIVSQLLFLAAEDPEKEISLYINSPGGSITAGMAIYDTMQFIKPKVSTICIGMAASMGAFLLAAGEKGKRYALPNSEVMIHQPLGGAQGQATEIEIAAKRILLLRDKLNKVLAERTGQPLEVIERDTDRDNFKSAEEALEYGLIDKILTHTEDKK
#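 ClpP 10 microg/mL final, pH 8 Tris/KCl buffer with BSA, glycerol, Tween-20; compound pinned in; FRET-FV substrate; RT 20 min; Ex320/Em430; ΔFRET vs ADEP 5.8 microM, DMSO, no enzyme.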
# gsp antag – antagonists of gsp mutant (McCune-Albright syndrome); gsp-mutant cells, cAMP HTRF, 30 min; control for the full effect not named in the record; Potency, µM (highest dose often 76.9 µM), without a hit: at the top dose activity change, negative = inhibition, hits mostly inhibitors; actives 0.4% (n = 340,000); AID 624288; active = falling curve of any shape with a large fitted effect; inconclusive = falling curve, mostly with a smaller effect; inactive = flat or rising curve; cell line not stated here;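 also: intracellular cAMP measured with PDE inhibitor Ro 20-1724 present during compound exposure; potency is read from the fitted curve at half-maximal effect; % is scaled to controls: 0 for no effect and ±100 for the full control effect; nearly all actives have a fitted effect of over 65% in size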
#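 HTRF cAMP read-out (cAMP-d2 plus anti-cAMP antibody-K in lysis buffer, 30 min RT). Before lysis, cells are exposed to compounds with […] for 30 min at 37C in DPBS containing Ca/Mg, BSA and Tween 20.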
# PINK1 modulator – PINK1 expression modulation. Potency, µM (top dose mostly 76.6 µM), without a hit: at the highest dose activation (PINK1 increase), most hits filed as activators. PINK1 immunofluorescence, high-content cytometry, 24 h. actives 0.2% (n = 410,000); active = well fitted activation curve with a large enough effect; inconclusive = small, poorly fitted or top-dose-only effect; inactive = flat fitted curve, though single readings scatter; cell line not stated here;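 also: potency is read from the fitted curve at half-maximal effect; % of control where 0% means no effect; nearly all actives have a fitted effect of over 65% in size; a mitochondrial uncoupler was the plate control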
#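 A stable cell line was treated with compounds at 5 concentrations for 24 hours, with CCCP as control. PINK1 levels and mitochondrial localization were measured by immunofluorescence with mitochondrial, cell and nuclear markers after fixation, read by laser-scanning cytometry.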
# Active calls of the source: *; ? = inconclusive; nt = not tested or not shown; [ ] = remark or other dose.
SMILES,D2 agonist,gsp agonist,Sfp PPTase inh,Menin MLL FP FL,ClpP mod,gsp antag,PINK1 modulator
COc1ccc(S(=O)(=O)N2CCC(C(=O)NCCCc3ccccc3)CC2)cc1,-1.8,9%,-5%,nt,nt,-9%,-1.3%
C[C@H]1CN=C(N(C)C)N1CCc1ccc(F)cc1,-0.9,-23%,nt,nt,0.4%,2%,3.1%
COc1ccc(CN2C(=O)CN=C2Nc2cccc(C)c2C)cc1,-1.8,16%,9%,3.7,0.6%,9%,-1.2%
CC(=O)c1ccc(NS(=O)(=O)c2ccc([N+](=O)[O-])cc2)cc1,-4.9,4%,nt,nt,nt,-18%,-0.9%
S=c1[nH]c2cnc(Cl)nc2[nH]1,-0.7,?,nt,nt,nt,4%,1.1%
CC(C)CNC(=O)C1CCN(Cc2ccc(OCc3ccccc3)cc2)CC1,-0.5,?,-8%,2.4,1.5%,-4%,8.3%
O=[N+]([O-])c1ccc(O)c(Nc2c([N+](=O)[O-])ccc3nonc23)c1,-9.4,-6%[15.4 µM],-9%,nt,nt,?,7.0%
Cc1cc(NC(=O)COn2nnc3ccc(S(C)(=O)=O)cc32)ccc1Br,-1.6,?,10%,0.8,1.1%,?,-1.0%
COc1cc(/C=C/C(=O)c2cccc([N+](=O)[O-])c2)cc(OC)c1OC,-3.3,?,-15%,-1.8,-0.3%,1%,-3.2%
CCOc1ccc(-c2cn3ccccc3n2)cc1[N+](=O)[O-],0.6,7%[15.4 µM],10%,7.0,nt,-1%,0.7%

# 3 compounds already listed, arranged by molecular weight, smallest number first:
SMILES,D2 agonist,gsp agonist,Sfp PPTase inh,Menin MLL FP FL,ClpP mod,gsp antag,PINK1 modulator
O=[N+]([O-])c1ccc(O)c(Nc2c([N+](=O)[O-])ccc3nonc23)c1,-9.4,-6%[15.4 µM],-9%,nt,nt,?,7.0%
CC(=O)c1ccc(NS(=O)(=O)c2ccc([N+](=O)[O-])cc2)cc1,-4.9,4%,nt,nt,nt,-18%,-0.9%
COc1ccc(CN2C(=O)CN=C2Nc2cccc(C)c2C)cc1,-1.8,16%,9%,3.7,0.6%,9%,-1.2%

# Following part:
SMILES,D2 agonist,gsp agonist,Sfp PPTase inh,Menin MLL FP FL,ClpP mod,gsp antag,PINK1 modulator
Cc1ccc(S(=O)(=O)N2CCCCC2)cc1C(=O)N(CCc1ccccc1)Cc1ccccc1,-2.2,5%,nt,nt,-0.7%,?,-0.7%
COc1cccc(C2CC(c3ccccc3)Nc3ncnn32)c1 (stereo unspecified),-2.7,-2%,-1%,-2.6,0.9%,10%,4.5%[38.3 µM]
COC(=O)N1CCCc2cc(C)ccc21,-1.0,5%,25%,-2.8,nt,7%,0.1%
O=C(CN(C(=O)CNC(=O)c1cccs1)c1ccccc1F)NC1CCCC1,1.3,0%[15.4 µM],16%,-1.0,nt,2%,2.1%
Cc1cc(=O)n2nc(N3CCC(C(=O)Nc4cccc(Cl)c4C)CC3)sc2n1,0.3,8%,19%,2.1,-0.3%,1%,2.1%
CN(C(=O)CSc1nnc(CN2CCCC2)n1Cc1ccccc1)c1ccccc1,-4.9,3%,nt,nt,-13%,4%,4.3%
Cc1ccc(-c2nc(Nc3cccc(O)c3)c3ccccc3n2)cc1,-6.2,-15%,10%,1.9,-22%,-18%,-1.1%
O=C(CSc1nnc(-c2ccc(F)cc2)o1)N1CCCC1,-1.1,-1%[15.4 µM],13%,nt,nt,1%,1.0%
O=C(COC(=O)COc1ccccc1F)Nc1ccc(Cl)cn1,-4.8,-45%[inhibitor],17%,-0.6,1.1%,-9%,1.3%
COCCCNc1nc2c(-c3cccc(C)c3)nnn2c2ccccc12,-5.7,?,15%,3.8,4.4%,4%,5.7%
COc1ccc(C(C)=O)cc1COC(=O)CNC(=O)c1ccc(Cl)cc1,4.5,-56%[inhibitor],12%,1.6,0.4%,-6%,-0.4%
CCCN(CC(=O)Nc1cccc(S(N)(=O)=O)c1)CC(=O)Nc1ccc(F)c(F)c1F,-2.8,-58%[inhibitor],1%,-0.5,-0.2%,3%,2.3%
CN(C)C(CNC(=O)c1coc2ccccc2c1=O)c1ccccc1 (stereo unspecified),-6.0,4%,17%,nt,nt,-3%,1.5%
CCN(CC)S(=O)(=O)c1ccc(/C=C/C(=O)OCC(=O)NC(=O)C2COc3ccccc3O2)cc1 (stereo unspecified),1.1,20%[15.4 µM],nt,nt,0.5%,-21%,1.8%
CC(=O)c1ccc(N=Cc2c(O)n(-c3cc(Cl)ccc3N3CCOCC3)c(=O)c3ccccc23)cc1,-1.6,2%,?,2.9,-2.5%,3%,0.7%
CCCCN(CCCC)c1nc(OC)nc(-n2nnc(C(C)=O)c2C)n1,-4.6,-4%,-13%,2.7,0.5%,-8%,4.8%
Cc1cc([N+](=O)[O-])nn1CC(=O)N(C)C1CCCCC1,-4.7,1%[15.4 µM],9%,-0.1,nt,0%,1.9%
O/N=C1\CCCc2ccc(Cl)cc21,-1.7,-16%,4%,-1.5,0.0%,7%,0.6%
O=C(COC(=O)/C=C/c1ccc2c(c1)OCO2)Nc1ccc(S(=O)(=O)N2CCCC2)cc1,3.2,2%[15.4 µM],7%,6.7,-0.4%,8%,-1.7%
NC(=O)CSc1nnc2ccc(-c3ccc(Cl)cc3)nn12,0.2,?,22%,3.0,nt,-6%,8.0%
COc1ccc2c(C)cc3nnnn3c2c1,-6.8,-11%[15.4 µM],8%,-1.8,nt,9%,2.0%
CCOc1ccccc1N1CCN(CC(O)COCc2cccs2)CC1 (stereo unspecified),-2.8,11%,16%,0.6,nt,8%,0.1%
COc1cccc(OC)c1OCCNCC1CSc2ccccc2O1 (stereo unspecified),-2.6,nt,nt,-1.5,-0.5%,0%,2.6%
CCOc1ccccc1NC(=O)C1CCCN(S(=O)(=O)c2ccccc2)C1 (stereo unspecified),-2.0,3%,2%,0.0,-1.5%,-2%,-0.4%
Cc1c(Cl)cccc1NC(=O)c1cc(C2CC2)on1,-2.9,?,-8%,-2.0,2.4%,0%,2.3%
COCCn1c(SCC(=O)NCc2ccco2)nnc1-c1c[nH]c2ccccc12,-0.7,-30%,11%,1.6,-0.8%,4%,-0.1%
Cc1cccc(N(Cc2ccccc2)C(=O)CN2C(=O)NC3(CCCC3)C2=O)c1,-3.0,?,nt,nt,0.1%,4%,-1.9%
COc1ccc2c(c1)nc(SCC(C)O)n2C (stereo unspecified),-4.8,21%,3%,3.6,-4.6%,-3%,2.4%
Cc1ccc(NCCC(=O)c2cccs2)cc1Cl,-3.2,-42%,4%,1.7,2.1%,-7%,6.3%
COc1ccc(C(=O)Nc2ccc(Cl)c(S(=O)(=O)Nc3ccccc3OC)c2)cc1,-2.6,-21%,15%,-1.7,-6.2%,-26%,2.5%
Brc1ccc2ncc3ccccc3c2c1,0.0,0%,nt,nt,-2.1%,1%,-0.7%
O=C(CNc1ccccc1)N/N=C/c1ccc2c(c1)OCCO2,2.3,-2%[15.4 µM],4%,1.1,-8.9%,-1%,-2.3%
Cc1ccccc1-c1nc(CS(=O)(=O)CC(=O)Nc2cc(F)ccc2F)c(C)o1,0.0,-43%[inhibitor],6%,0.1,-1.5%,-32%,-0.4%
CC(=O)N1CCOc2ccc(S(=O)(=O)N3CCC(C(=O)NCc4ccc(Cl)cc4)CC3)cc21,0.9,-14%,nt,nt,-0.7%,nt,1.4%
CN(CC(=O)Nc1ccc(Cl)c(C(F)(F)F)c1)C(=O)C1CCN(C(=O)c2ccc(Cl)cc2)CC1,-2.3,7%,nt,nt,0.7%,?,21%
C=CCOc1ccc(CNCc2cccnc2)cc1OCC,6.8,-25%,4%,3.1,nt,-1%,-0.4%
CCCNc1nc(C)cc(-c2cc(C(=O)NC3CCCC3)on2)n1,2.6,27%,16%,5.7,-12%,10%,2.8%
CC(C)CC1(C)CNC(=O)NC1,-1.2,-18%[15.4 µM],nt,nt,0.4%,9%,0.2%
CCN(CC)c1ccc(/C=N/Nc2cccc(C)c2)c(O)c1,3.6,-20%,?,-0.4,-1.1%,4%,2.0%
Cc1ccc(S(=O)(=O)NC2CCCC(C(=O)O)C2)cc1 (stereo unspecified),-1.8,-23%,9%,-0.6,0.0%,9%,1.7%
O=C(Cn1cnc2cc([N+](=O)[O-])ccc2c1=O)NCc1ccc(Cl)cc1,15,8%[15.4 µM],16%,-1.0,nt,14%,4.3%
O=C1CN(C(=O)COC(=O)CCC(=O)c2ccc(F)cc2)c2ccccc2N1,3.3,5%,nt,nt,-1.0%,9%,0.4%
O=C(O)CSc1nnc(NC(=O)CN2CCOCC2)s1,0.0,22%,-14%,1.3,-0.9%,11%,-1.0%
COc1ccc(-c2noc(CN(C(=O)c3ccoc3C)C(C)C)n2)cc1,0.1,2%,12%,3.2,nt,-2%,1.9%
O=C1c2ccccc2NC(c2cccc([N+](=O)[O-])c2)N1CCc1ccccc1 (stereo unspecified),4.0,6%[15.4 µM],6%,-8.8,nt,?,0.3%
Cc1c(NC(=O)/C(C#N)=C\c2cccs2)c(=O)n(-c2ccccc2)n1C,-0.6,-20%,9%,1.6,-0.1%,9%,1.3%
O=C(COC(=O)C1(c2ccc(Cl)cc2)CCCC1)N1CCc2ccccc21,0.5,?,-9%,-1.9,-1.1%,-10%,1.3%
Cc1ccc(-c2ccc(/C=N/n3cnnc3)o2)cc1,8.1,-38%[inhibitor],-29%,3.6,nt,2%,-3.0%
CN(Cc1nc2ccccc2[nH]1)C(=O)C1CCC(=O)N(C2CCCC2)C1 (stereo unspecified),-3.6,-2%,19%,nt,-1.1%,13%,-2.1%
O=C(CSc1nc(NS(=O)(=O)c2ccccc2)cc(=O)[nH]1)Nc1ccc(F)cc1,-2.3,22%,4%,3.6,0.0%,1%,-1.2%
Cc1ccc(C(=O)OCC(=O)c2c(N)n(C)c(=O)n(C)c2=O)cc1S(=O)(=O)N1CCCCC1,-4.1,0%,-11%,0.0,-0.2%,3%,-0.3%
O=C(COc1cc2oc(=O)cc(-c3ccccc3)c2cc1Cl)NCc1ccccn1,-0.5,-27%,-20%,-4.3,-15%,-12%,-1.0%
